# Bioassay records: PubChem, National Center for Advancing Translational Sciences (NCATS)
# Six1-Eya2 blk: qHTS Assay for Inhibitors of the Six1/Eya2 Interaction. Homeobox protein SIX1 (Homo sapiens) + Protein phosphatase EYA2 (Homo sapiens), …. AlphaScreen GST-Six1/His-Eya2 binding, biochemical; hits give low values; control for the full effect not named in the record. activity change, % (no concentration beside the values). 360,000 tested, 0.56% active. AID 651725, 2012; in the data active = activity change below about -65%; inconclusive = about -30% to -65%; inactive = above about -30%; also: % is scaled to controls: 0 for no effect and ±100 for the full control effect; compound concentration not given in the record
# Target sequence (O00167 whole entry, looked up): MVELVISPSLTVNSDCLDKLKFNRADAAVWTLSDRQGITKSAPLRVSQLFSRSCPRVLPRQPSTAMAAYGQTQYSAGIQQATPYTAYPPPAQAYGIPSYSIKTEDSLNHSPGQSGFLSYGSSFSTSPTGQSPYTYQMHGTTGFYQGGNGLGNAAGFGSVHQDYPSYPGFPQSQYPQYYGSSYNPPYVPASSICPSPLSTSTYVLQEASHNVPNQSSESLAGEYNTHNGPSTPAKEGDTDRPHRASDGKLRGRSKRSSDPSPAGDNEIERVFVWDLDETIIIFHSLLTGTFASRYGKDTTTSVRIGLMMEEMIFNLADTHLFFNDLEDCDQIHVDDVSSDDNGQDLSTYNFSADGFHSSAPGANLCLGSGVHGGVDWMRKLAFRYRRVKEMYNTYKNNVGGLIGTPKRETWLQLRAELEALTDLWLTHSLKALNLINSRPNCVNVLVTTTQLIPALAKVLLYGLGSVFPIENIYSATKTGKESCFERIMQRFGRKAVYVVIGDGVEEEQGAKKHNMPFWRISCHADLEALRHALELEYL
# Target sequence (Q15475 whole entry, looked up): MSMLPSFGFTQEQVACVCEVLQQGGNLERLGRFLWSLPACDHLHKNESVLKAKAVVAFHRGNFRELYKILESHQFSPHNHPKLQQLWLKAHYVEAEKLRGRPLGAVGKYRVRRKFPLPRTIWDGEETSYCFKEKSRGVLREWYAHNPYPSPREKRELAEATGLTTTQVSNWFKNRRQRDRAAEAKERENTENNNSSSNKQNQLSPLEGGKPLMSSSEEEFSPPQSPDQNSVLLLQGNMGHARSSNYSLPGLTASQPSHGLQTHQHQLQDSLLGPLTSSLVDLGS
#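 Six1/Eya2 binding was read as AlphaScreen signal after compounds were pinned into GST-Six1 plus His-tagged Eya2 (5X stock 250/500 nM) in pH 8.0 Tris/NaCl/TCEP buffer, beads added, then incubated 1 h, 37 C, dark.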
# Sfp PPTase inh: qHTS Assay for Inhibitors of Bacillus subtilis Sfp phosphopantetheinyl transferase (PPTase); 4'-phosphopantetheinyl transferase ffp (Bacillus subtilis), Q9F4F7; Biochemical Sfp PPTase activity, qHTS; AID 1490, 2009; 310,000 tested, 3.5% active; Potency, µM, for inactives: max response, negative = inhibition, actives largely listed as inhibitors; active = well fitted inhibition curve with a large enough effect; inconclusive = small, poorly fitted or top-dose-only effect, or another doubt; inactive = no such curve, though single readings can be large or run the other way;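 also: the enzyme is Sfp with the accession as filed and its product quenches rhodamine fluorescence; potency is read from the fitted curve at half-maximal effect; 0% = enzyme reaction without inhibitor and -100% = no enzyme wells; top concentration of the series not given in the record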
#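 Compounds were incubated with enzyme (final 15 nM) for 15 min at room temperature before substrate addition started the reaction. Fluorescence at 525 nm excitation, 598 nm emission was recorded immediately and after 30 minutes.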
# PINK1 modulator: A Quantitative High throughput Screen to Identify Chemical Modulators of PINK1 Expression | Potency, µM (series often up to 76.6 µM), for inactives: top-dose activation (PINK1 increase), actives largely listed as activators | PINK1 immunofluorescence, high-content cytometry, 24 h | 410,000 tested, 0.2% active; active = well fitted activation curve with a large enough effect; inconclusive = small, poorly fitted or top-dose-only effect; inactive = flat fitted curve, though single readings scatter; cell line not stated here;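 also: potency is read from the fitted curve at half-maximal effect; % of control where 0% means no effect; nearly all actives have a fitted effect of over 65% in size; a mitochondrial uncoupler was the plate control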
#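 Cells are seeded, rested 12 hours, then given compound at five concentrations or DMSO for 24 hours. After fixation, blocking and antibody staining, PINK1 amount and mitochondrial localization are scored; CCCP serves as control.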
# D2 ag: Beta-Arrestin HTS for Positive Allosteric Modulators of the Human D2 Dopamine Receptor: Agonists | DiscoveRx PathHunter D2 beta-arrestin, luminescence, 90 min; 100% = 57 uM dopamine signal | 360,000 tested, 0.084% active | activation, % (no concentration beside the values) | AID 624465, 2012 | D(2) dopamine receptor (Homo sapiens), P14416; in the data active = activation above about 40%; inconclusive = about 15% to 40%; inactive = below about 15%; also: compound concentration not given in the record; the text of the record calls up to 30% inactive
#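 Agonist mode: compounds alone added to overnight-plated D2 PathHunter cells for 90 min at 37 C, with 57 uM final dopamine (EC100) defining full response. Beta-arrestin recruitment detected by chemiluminescent reagent, read after 1 h at ambient temperature.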
# D2 potentiator: Beta-Arrestin HTS for Positive Allosteric Modulators of the Human D2 Dopamine Receptor: Potentiators; DiscoveRx D2 beta-arrestin cells, luminescence, 90 min; 100% = 57 uM dopamine signal; potentiation, % (test concentration not listed); 360,000 tested, 0.23% active; active = potentiation of 50% or more; inconclusive = 30% to 50%; inactive = 30% or less;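 also: compound concentration not given in the record; tested on top of an EC20 dose of dopamine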
#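 D2 cells co-treated with compound plus 50 nM dopamine (EC20) for 90 min at 37 deg C to detect potentiation. Beta-arrestin recruitment was read as enzyme-fragment luminescence after 1 h at ambient temperature. Full response was set by 57 uM dopamine.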
# TRPV1 PAM: HTS Assay for Compounds that Act as Potentiators of the Vanilloid Receptor 1; Transient receptor potential cation channel subfamily V member 1 (Homo sapiens), Q8NER1; TRPV1-expressing cells, Fluo-8 calcium influx, capsaicin EC20 potentiation; host cell line not named in the record; control for the full effect not named in the record; potentiation, % at 8.33 µM; 320,000 tested, 0.02% active; active means potentiation above 80%; inconclusive means 30% to 80%; inactive means below 30%; also: 0% is about no effect
#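 Fluo-8 calcium influx in TRPV1-expressing cells, kinetic read (ex 480/em 520 nm). Compound added and read 3 min for agonist activity, followed by capsaicin at EC20 final and 2 min further read for enhancement.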
# CtBP-E1A blk: qHTS Assay for Inhibitors of the CtBP/E1A Interaction | AlphaScreen GST-E1A/His-CtBP binding, 1536-well; hits give low values; control for the full effect not named in the record | activity change, % (no concentration beside the values) | 340,000 tested, 0.49% active | AID 651724, 2012; in the data active means activity change below about -65%; inconclusive means about -30% to -65%; inactive means above about -30%; also: % is scaled to controls: 0 for no effect and ±100 for the full control effect; compound concentration not given in the record
#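 AlphaScreen with 125 nM GST-E1A and 125 nM His-CtBP (5X stocks) in Tris pH 8.0, 300 mM NaCl, BSA, Tween 20, TCEP. Compounds preincubated 2 h at 37 deg C, then glutathione donor/nickel acceptor beads added for 1 h at 37 deg C in dark.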
# Numbers without * were called inactive; ? = inconclusive; / = not tested or not shown; & = joins results of further samples; [ ] = another dose, or the depositor's remark.
structure,Six1-Eya2 blk,D2 potentiator,TRPV1 PAM,PINK1 modulator,D2 ag,CtBP-E1A blk,Sfp PPTase inh
Cc1ccc(C)c(NS(=O)(=O)c2ccc(-c3ccc(=O)[nH]n3)o2)c1,-11,2,3,0.1%,7.6,-2,12%
Cc1cc(C(=O)N/N=C/c2c(C)nn(-c3ccccc3)c2C)n[nH]1,-6,-1,-4,-0.2%,2.5,-6,10%
COc1cc(C)c(S(=O)(=O)NCCCn2ccnc2)cc1C,-1,-4,16,0.5%,-1.1,3,14%
Cc1cc(OCc2cc(C(=O)NCc3cc(C(C)C)no3)no2)cc(C)c1Cl,14,-2,-4,4.9%,0.1,-6,16%
Cn1c(=O)c2c(nc(CCC3CCCC3)n2C)n(C)c1=O,-4,-3,/,0.8%,-1.3,8,/
O=C(CSc1nncn1-c1ccccc1)NC1CCCCC1,-5,-8,7,-0.4%,2.0,/,27%
CN(C)C(CNC(=O)C1CCCN1C(=O)c1cccs1)c1ccccc1 (stereo not given),7,-4,/,1.3%,-0.4,5,/
O=c1cnnc(Nc2cccc(C(F)(F)F)c2)[nH]1,3,-5,5,-3.9%,5.4,3,21%
O=C(NCc1ccncc1)[C@@H]1CCCN1C(=O)[C@H]1CCCN1,-2,/,/,0.1%,/,3,/
CC(=O)Nc1ccc(S(=O)(=O)N2CCC(C(=O)NCCC(=O)NCc3ccccc3)CC2)cc1,-2,-2,17,0.7%,6.8,1,9%
COc1cc(C)c(NC(=O)Cc2ccsc2)cc1OC,3,-4,-1,0.9%,0.4,-1,4%
Cn1c(=NC(=O)CCS(=O)(=O)c2ccccc2)sc2cc(F)ccc21,2,-10,1,21%,3.4,8,/
O=C(NN1C(=O)C2C3C=CC(C3)C2C1=O)C(O)c1ccccc1 (stereo not given),2,-7,0,-0.2%,-3.4,9,19%
Cc1c(Cl)cccc1NC(=O)Nc1cccnc1,-5,-26,-14,2.0%,-1.5,-21,12%
S=C(Nc1ccccc1)N1CCn2c1nc1ccccc12,-1,-12,9,/,-2.0,4,22%
CC(C)C(=O)NCC(c1cccs1)S(=O)(=O)c1ccc(F)cc1 (stereo not given),4,-11,15,0.6%,-5.0,11,1%
NC(Cc1ccccc1)c1csc(NC(=O)c2cccc(OC(F)(F)F)c2)n1 (stereo not given),1,3,/,-1.2%,-6.5,-20,/
O=C(CSc1nc(-c2ccc(F)cc2)nc2c1Cc1ccccc1O2)Nc1ccc(C(=O)O)cc1,-24,-5,3,-1.4%,-0.3,-12,-21%
CCCCc1c(-c2ccccc2)ncn1CCc1ccccc1OC,-26,/,/,?,/,2,/
N#CCCN1CCNCC1,-3,-24,-4,1.5%,-2.7,-2,9%
CCOC(=O)C1(Cc2ccc(OC)cc2)CCN(C(=O)C2=CCCC2)CC1,4,0,-11,-0.2%,1.0,10,15%
CC(C)(C)C1CCc2[nH]c3ccccc3c(=O)c2C1 (stereo not given),-1,-14,-5,-1.1%,-3.9,-1,21%
CC1CCN(C(=O)c2ccc(NS(C)(=O)=O)cc2)CC1,-1,0,10,?,-4.6,7,21%
O=C(Nc1ccc(F)c(F)c1)c1oc2ccccc2c1NC(=O)C1CCCO1 (stereo not given),9,-8,1,-0.4%,-4.3,-2,-16%
CCOC(=O)c1nnn(-c2nonc2N)c1CN1CCc2ccccc2C1,1,-7,-7,0.6%[38.3 µM],-2.8,1,7%
O=C(O)c1cc(Cl)ccc1OS(=O)(=O)c1ccc(Cl)s1,-2,-9,/,-0.3%,-3.4,5,/
NC(=O)[C@H]1CC2(CC(c3cccc(NC(=O)COc4ccc(Cl)cc4)c3)=NO2)CN1C(=O)CC(c1ccccc1)c1ccccc1 (stereo not given in full),-4,-3,?,-0.2%,-3.6,-3,-1%
COCCNC(=S)N(CCc1c(C)[nH]c2ccc(C)cc12)Cc1ccco1,-18,-7,-15,-0.4%,2.4,-2,10%
COc1ccc(/C=C2\Sc3ccc(C(=O)NCc4cccnc4)cc3N(C)C2=O)cc1OC,-21,0,-9,5.7%,0.1,-17,-17%
CC1CCCC(NC(=O)c2ccc3c(=O)n(CC4CCCO4)c(=O)[nH]c3c2)C1C (stereo not given),1,-11,2,0.2%,0.2,-6,7%
Cc1cccc(NC(=O)CSCc2cc(=O)n3c(C)csc3n2)c1C,6,-6,-4,-1.6%,2.1,3,-4%
Cc1ccccc1-n1ncc2c1CC(C)(C)CC2NC(=O)CCCN1CCCC1=O (stereo not given),-6,17,1,5.7%,-5.3,-7,9%
O=C1CC(C(=O)Nc2ccccc2)S/C(=N\N=C\c2ccco2)N1 (stereo not given),-7,-3,9,-0.4%,2.2,0,-26%
NS(=O)(=O)c1ccc(CNC(=O)c2ccc3ccccc3n2)cc1,3,-4,-12,0.3%,-4.5,0,7%
C=CCNC(=S)Nc1ccc(Cl)cc1F,9,-6,-4,0.4%,7.7,0,16%
CCN(CC)CCCNC(=O)CCC(=O)NNc1nc2ccccc2c2nc(C)nn12,-21,5,-4,-2.3%&0.1%,7.2,-24,14%
COC(=O)c1ccccc1S(=O)(=O)N(Cc1ccco1)Cc1cc2cc(OC)ccc2[nH]c1=O,-8,-14,-7,-2.0%[38.3 µM],-2.2,-3,22µM*
O=C(N/N=C\c1ccc(Cl)s1)c1ccc(Cn2cccn2)o1,-15,-4,-23,-0.8%,-5.0,-11,-1%
Cc1cc(C(=O)Nc2cccnc2)cs1,1,-2,22,0.2%[38.3 µM],1.4,3,9%
CCOC(=O)C1(CCOc2ccccc2)CCN(Cc2ccc(OC)cc2)CC1,0,-10,/,?,1.5,-18,/
CCOc1ccccc1C(=O)N[C@H](C(=O)NNC(=O)c1cccs1)C(C)C,2,-3,/,-1.1%,-6.0,-4,/
Cc1nonc1CC(=O)N1CCCC(C(=O)c2ccc(Cl)cc2)C1 (stereo not given),-1,0,5,2.1%,6.8,/,9%
FC(F)Oc1ccc(NC(=S)Nn2cnnc2)cc1,2,-15,7,0.7%,-7.0,1,22µM*
CC(C)CCOc1cccc(OCC(=O)NC2CCS(=O)(=O)C2)c1 (stereo not given),2,0,-8,-1.7%,3.5,7,-12%
COc1ccc(CNC(=O)[C@@H]2CC=C[C@@H]3CCN(Cc4ccccc4)C(=O)[C@@H]32)cc1,1,-9,/,1.3%,-5.7,6,/
CC1CCCC(C)N1C(=O)CSc1nc2ccccc2s1 (stereo not given),0,-29,-18,/,-1.9,-1,-14%
CCc1ccc(-n2c(SCC(=O)N3CCC(C(=O)O)CC3)nnc2-c2ccncc2)cc1,-1,-16,-8,-0.4%,-2.8,3,7%
Cc1ccc(C(=O)Nc2ncccc2O)cc1S(=O)(=O)N1CCCCC1,-7,17,-2,0.8%,-2.4,-25,/

# Given field by field: three of the compounds above.
> COc1ccc(CNC(=O)[C@@H]2CC=C[C@@H]3CCN(Cc4ccccc4)C(=O)[C@@H]32)cc1
  Six1-Eya2 blk: 1	D2 potentiator: -9	TRPV1 PAM: /	PINK1 modulator: 1.3%	D2 ag: -5.7	CtBP-E1A blk: 6	Sfp PPTase inh: /
> CC1CCCC(C)N1C(=O)CSc1nc2ccccc2s1 (stereo not given)
  Six1-Eya2 blk: 0	D2 potentiator: -29	TRPV1 PAM: -18	PINK1 modulator: /	D2 ag: -1.9	CtBP-E1A blk: -1	Sfp PPTase inh: -14%
> CCc1ccc(-n2c(SCC(=O)N3CCC(C(=O)O)CC3)nnc2-c2ccncc2)cc1
  Six1-Eya2 blk: -1	D2 potentiator: -16	TRPV1 PAM: -8	PINK1 modulator: -0.4%	D2 ag: -2.8	CtBP-E1A blk: 3	Sfp PPTase inh: 7%

# (next part)
structure,Six1-Eya2 blk,D2 potentiator,TRPV1 PAM,PINK1 modulator,D2 ag,CtBP-E1A blk,Sfp PPTase inh
CC(=O)NC(=O)COC(=O)/C=C/c1c(C)nn(Cc2c(Cl)cccc2Cl)c1Cl,21,-4,1,3.0%,-3.0,0,1%
CCn1c(CN2CCN(CCO)CC2)nc2ccccc21,1,-8,-8,1.8%,-3.4,/,-20%
O=c1c2ccccc2sc2ccc(Cl)cc12,11,-13,2,-1.0%,-0.7,21,-1%
Cc1ccc(CNC(=O)Nc2ccc(F)cc2)n1C,0,-10,7,-0.1%,7.0,-3,-10%
O=C(CCl)Nc1cccc(S(=O)(=O)NC2=NCCCCC2)c1,15,-2,/,-0.4%,-1.2,/,/
N#CC(c1ccc(Cl)nn1)c1ccc(Cl)cc1Cl (stereo not given),7,-4,-1,-0.9%,-6.3,0,-9%
CCC1CCCCN1C(=S)NC(=O)c1cccs1 (stereo not given),5,-6,6,0.8%,-7.3,4,4%
COc1ccc(N/C=C/C(=O)c2ccc3c(c2)OCO3)cc1OC,-11,-1,12,3.4%,0.4,5,?
COCCNc1nc2c(c(=O)n(Cc3cccc(Cl)c3)c(=O)n2C)n1C,0,-2,3,-0.3%&0.5%,-4.7,3,-6%
Cc1cc(OC(C)C(=O)N2CCN(c3ccc(F)cc3)CC2)c2c(C)c(C)c(=O)oc2c1 (stereo not given),1,-6,3,-0.7%,-1.9,5,-4%
CCn1c(=S)[nH]c2c(=O)n(C)c(=O)n(C)c21,-17,0,/,-1.8%,1.6,-21,/
CCOc1ccccc1NC(=O)NCc1cccnc1,-7,-11,4,1.4%,-3.4,11,23%
CCOc1ccccc1NC(=O)C(OC(=O)c1cnccn1)c1ccccc1 (stereo not given),-1,9,17,1.8%,-2.7,4,/
CCCn1cnnc1CNC(=O)C1CCC(=O)N(CCc2cccc(F)c2)C1 (stereo not given),0,0,-1,-0.1%,-0.4,3,12%
COC1=CCC2([N+](=O)[O-])CN(CC(=O)O)CC1([N+](=O)[O-])C2 (stereo not given),1,1,2,-0.2%,-2.8,9,13%
Cc1c2c(nc3ccccc13)CCC(C)C2 (stereo not given),16,-26,-11,-0.8%,-4.0,-21,-6%
CCOC(=O)c1ccc(S(=O)(=O)NNS(=O)(=O)c2ccc(C)cc2)cc1,9,-5,9,-3.3%,1.1,5,0%
